# PKD1 kinase inh = PKD1 (human) kinase inhibition; inhibition, %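 (about 10 µM by stock and volumes)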; 0.056% of 200,000 active; PKD1 kinase fluorescence polarization assay; Q15139;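 active = inhibition of 50% or more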;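 note: controls were vehicle for no effect and a reference inhibitor for full effect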
# Target sequence (Q15139 whole entry, looked up): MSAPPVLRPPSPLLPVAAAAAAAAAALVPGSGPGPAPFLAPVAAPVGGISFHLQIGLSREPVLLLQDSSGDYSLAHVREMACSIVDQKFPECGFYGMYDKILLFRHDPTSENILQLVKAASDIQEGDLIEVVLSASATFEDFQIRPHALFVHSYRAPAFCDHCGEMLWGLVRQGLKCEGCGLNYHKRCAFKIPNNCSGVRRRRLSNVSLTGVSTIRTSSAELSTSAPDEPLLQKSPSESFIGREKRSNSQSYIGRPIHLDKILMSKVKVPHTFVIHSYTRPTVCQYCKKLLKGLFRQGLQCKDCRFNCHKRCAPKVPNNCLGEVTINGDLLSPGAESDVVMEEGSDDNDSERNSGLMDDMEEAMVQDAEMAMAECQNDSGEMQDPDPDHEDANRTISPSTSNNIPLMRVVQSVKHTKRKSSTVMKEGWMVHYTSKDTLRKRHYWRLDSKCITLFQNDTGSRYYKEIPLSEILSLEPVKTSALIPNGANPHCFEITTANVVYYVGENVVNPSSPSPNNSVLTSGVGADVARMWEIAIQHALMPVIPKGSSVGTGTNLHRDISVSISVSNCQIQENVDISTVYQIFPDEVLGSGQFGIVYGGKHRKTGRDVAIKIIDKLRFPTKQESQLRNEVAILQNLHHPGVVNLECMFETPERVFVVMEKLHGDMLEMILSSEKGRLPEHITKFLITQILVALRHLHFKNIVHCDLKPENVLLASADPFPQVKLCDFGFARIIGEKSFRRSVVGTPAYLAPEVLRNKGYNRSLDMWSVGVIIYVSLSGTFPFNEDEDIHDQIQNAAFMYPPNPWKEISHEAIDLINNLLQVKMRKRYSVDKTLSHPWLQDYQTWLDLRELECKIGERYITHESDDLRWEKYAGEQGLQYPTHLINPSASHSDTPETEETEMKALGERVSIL
# Insulin prom inh = TRM-6 insulin promoter activity inhibition | TRM-6 cells (human fetal islet line), insulin promoter-eGFP reporter, imaging; reporter expression induced with tamoxifen | inhibition, % at 2 µM | 0.9% of 130,000 active | AID 1273;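 active = inhibition above the mean plus 3 SD, with well images judged a real hit on visual review, cut at about 60% in these data, passing the limit was not always enough; inconclusive = inhibition over the cutoff but images rejected on review; inactive = inhibition not above the cutoff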
# GALR2 agonist = agonists of human galanin receptor 2 (GALR2) | O43603 | GALR2-expressing cells, agonist activation read-out | activation, %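 (tested at 5 µM)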 | 0.48% of 140,000 active;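 active = above mean plus 3 SD of all compounds, about 5% in these data, not always enough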;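 note: 0% = vehicle buffer wells and 100% = reference agonist at full effect; tested in CHO reporter cells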
# RGS16-Gao = regulators of human RGS16-Galphao interaction | O15492+P09471 | bead-based flow cytometry RGS16-Galphao binding, fluorescence; actives lie on both sides | binding response (% of control), % at 10 µM | 0.38% of 220,000 active;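 active = below 25% or above 175%, edge rows of some plates excepted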;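 note: Galphao activated by GDP with aluminum fluoride before binding; 100% = wells without compound and 0% = beads without RGS; some results beyond the cut were filed as inactive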
# HSV replic up = HSV replication enhancement | HSV replication augmentation in cells, fold increase | maximum fold increase | 0.005% of 220,000 active;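 active = peak rise of 1.5-fold or more in the series; inconclusive = self-fluorescent or not available for retest; tested in PC3 cells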;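 note: first round at 10 µM; read as green reporter fluorescence; hits show the peak of a series up to 25 µM; 1 = signal of infected wells without compound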
# Insulin prom inh cell count = recorded beside Insulin prom inh, whose call it bears; normalized cell count, %; measured here: cell count, toxicity; reference of the scale not given here;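 cells exposed to compound for 48 h; stained nuclei by imaging scaled within each plate; lower means fewer cells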
# HSV replic up primary fold = further read-out of HSV replic up, marked with its call; fold increase; compound at 10 µM; measured here: primary screen fold increase 10 uM; tested in PC3 cells;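 GFP signal in the first replicate; 1 = infected wells without compound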
# * = called active by the depositor; i = inactive; ? = inconclusive; / = not tested or not shown.
SMILES,PKD1 kinase inh,Insulin prom inh,Insulin prom inh cell count,GALR2 agonist,RGS16-Gao,HSV replic up,HSV replic up primary fold
CC(C)C(NS(=O)(=O)c1cccc2nsnc12)C(=O)Nc1nc2ccc(Cl)cc2s1 (stereo unspecified),11,/,/,-1.1,103,/,/
COc1cc(NC2c3ccccc3C(=O)N2c2cc(C)ccn2)cc(OC)c1OC (stereo unspecified),6,/,/,-2.9,108,i,0.99
CCC/C=C(\CCC)C(NS(=O)(=O)c1ccc(C(F)(F)F)cc1)c1ccccc1 (stereo unspecified),-5,40,119,0.2,105,i,1
Oc1ccc(/C=N/NC(=S)N2CCOCC2)cc1,11,/,/,/,98,i,0.94
Cc1cccc(Cn2c(N3CCc4ccccc4C3)nc3c2c(=O)[nH]c(=O)n3C)c1,-8,-45,65,-0.6,102,i,0.91
CCCn1c(N2CCOCC2)nc2c1c(=O)[nH]c(=O)n2C,-2,-40,143,-1.9,97,i,1
O=C(Cc1cccs1)Nc1cccc(C(=O)Nc2ccco2)c1,1,53,98,-1.8,102,i,0.96
CN(C)S(=O)(=O)c1ccc(NC(=O)N2CCN(c3ccccc3Cl)CC2)cc1,-2,13,134,-2.1,83,i,1
FC(F)(F)c1cc(-c2cccs2)nc(N2CCOCC2)n1,-6,30,136,-2.1,102,i,0.87
CCc1c(C)sc(NC(=O)/C=C/C(=O)O)c1C(N)=O,1,/,/,/,96,i,1.1
O=C(CSc1oc(-c2ccc(F)cc2)nc1S(=O)(=O)c1ccc(F)cc1)NCC1CCCO1 (stereo unspecified),-1,i,66,-1.1,90,i,0.9
Cc1nc(OCC(=O)c2ccc(Cl)cc2)c(C#N)c2c1COC(C)(C)C2,-3,-6,120,-1.4,109,i,0.96
CSCC(=O)Nc1cc(C)on1,/,/,/,/,98,i,0.58
CS(=O)(=O)Nc1cccc2cccnc12,-13,/,/,-1.5,89,i,0.81
CCOC(=O)c1cnc(-n2cc(C)cn2)nc1Nc1ccccc1OCC,-2,15,94,-1.8,97,i,0.78
COc1cc(C(=O)N2CCN(S(=O)(=O)c3cccs3)CC2)cc(OC)c1C,-6,/,/,/,93,i,0.57
O=C1c2ccccc2C(=O)N1OCCOCCOCCON1C(=O)c2ccccc2C1=O,-13,17,120,0.4,87,i,1
CN(C)CCCOc1ccc(C(C)(C)c2ccccc2)cc1,-9,-43,77,0.1,184,i,0.76
CCOC(=O)N1[C@@H]2C=C(C)[C@@H]2[C@@H]2[C@@H](C)C(=O)N21,-12,/,/,-0.5,108,i,1.1
CN1C(=O)/C(=C/c2cn(CC(=O)N3CCCCC3)c3ccccc23)c2ccccc21,-5,-4,24,-0.9,103,i,0.76
Cc1occc1C(=O)Nc1nnc(-c2cccs2)s1,-2,/,/,/,105,i,0.99
CCCCCCN1C=CC=C/C1=C/C=C(C#N)C#N,-5,-36,91,0.3,89,?,/
Cc1cccc(NC(=O)CSc2c3c(nc4ccccc24)CCC3)n1,-8,53,76,/,93,i,0.76
COc1ccc(NC(=O)NCCc2cccc(Cl)c2)cc1OC,0,-21,117,/,101,i,1.1
CCOC(=O)c1ccc(S(=O)(=O)N2CCNCC2)cc1,-4,-34,149,-1.8,134,i,0.83
CCN1CCN(c2cc(C)c3cc(NC(=S)NCCCN4CCc5ccccc5C4)ccc3n2)CC1,5,-41,91,/,100,i,0.71
O=C(CSCc1ccc(F)cc1)NCc1ccc2c(c1)OCO2,-6,/,/,/,96,i,1
CCc1ccccc1NC(=O)c1cc2sccc2n1C,-9,/,/,-1.5,102,i,0.94
CCc1cc(C(=O)NNC(=S)NCC2CCCO2)cs1 (stereo unspecified),-4,-22,54,-3.0,105,i,0.99
N#C/C(C(=O)Oc1ccccc1)=C1\C=CC=CN1,-3,-27,115,-0.1,102,i,0.97

# Quoted at random: two entries already listed.
SMILES,PKD1 kinase inh,Insulin prom inh,Insulin prom inh cell count,GALR2 agonist,RGS16-Gao,HSV replic up,HSV replic up primary fold
CC(C)C(NS(=O)(=O)c1cccc2nsnc12)C(=O)Nc1nc2ccc(Cl)cc2s1 (stereo unspecified),11,/,/,-1.1,103,/,/
CS(=O)(=O)Nc1cccc2cccnc12,-13,/,/,-1.5,89,i,0.81

# (more compounds)
SMILES,PKD1 kinase inh,Insulin prom inh,Insulin prom inh cell count,GALR2 agonist,RGS16-Gao,HSV replic up,HSV replic up primary fold
COc1ccc(/C=C/CN2CCCC(C(=O)c3cc(F)ccc3F)C2)cc1 (stereo unspecified),1,/,/,/,103,i,0.95
Cc1c(Br)c(C(=O)NCc2cc3cc(Cl)ccc3[nH]2)nn1C,-10,-13,100,-0.3,112,i,0.92
Cc1onc(C(=O)N2CCN(Cc3ccccc3)CC2)c1[N+](=O)[O-],-2,-10,150,-1.6,100,i,0.88
CCOC(=O)C(Cc1ccccc1)C(=O)Nc1ccc(N(CC)CC)cc1 (stereo unspecified),11,-15,120,-1.1,103,i,1
CC1CCc2nc(N)c(C#N)c(-c3cccn3C)c2C1 (stereo unspecified),7,/,/,0.5,102,i,0.94
FC(F)(F)c1nnc2ccc(Sc3ccccn3)nn12,-2,/,/,/,94,i,0.92
CCOc1ccc(-c2csc(/C(C#N)=C\c3ccc(O)c([N+](=O)[O-])c3)n2)cc1,-10,-20,140,-1.0,111,i,1
COc1ccc(/C=N\NC(=O)c2sc(N)nc2C)cc1OC,-10,61,93,0.0,90,i,0.79
NNC(=O)c1ccc(CSc2cccc3cccnc23)cc1,-4,-36,133,/,112,i,0.99
CC1=CC(c2ccc(Cl)cc2)n2nc(NS(=O)(=O)c3ccc(C)cc3)nc2N1 (stereo unspecified),-7,-11,104,-0.2,95,i,0.84

# Brought forward from above: 6 compounds; new compounds follow.
SMILES,PKD1 kinase inh,Insulin prom inh,Insulin prom inh cell count,GALR2 agonist,RGS16-Gao,HSV replic up,HSV replic up primary fold
CC1CCc2nc(N)c(C#N)c(-c3cccn3C)c2C1 (stereo unspecified),7,/,/,0.5,102,i,0.94
FC(F)(F)c1nnc2ccc(Sc3ccccn3)nn12,-2,/,/,/,94,i,0.92
CCOc1ccc(-c2csc(/C(C#N)=C\c3ccc(O)c([N+](=O)[O-])c3)n2)cc1,-10,-20,140,-1.0,111,i,1
COc1ccc(/C=N\NC(=O)c2sc(N)nc2C)cc1OC,-10,61,93,0.0,90,i,0.79
NNC(=O)c1ccc(CSc2cccc3cccnc23)cc1,-4,-36,133,/,112,i,0.99
CC1=CC(c2ccc(Cl)cc2)n2nc(NS(=O)(=O)c3ccc(C)cc3)nc2N1 (stereo unspecified),-7,-11,104,-0.2,95,i,0.84
O=C1C2ON(c3ccccc3)C(c3cccnc3)C2C(=O)N1c1ccccc1 (stereo unspecified),-12,16,87,-0.1,101,i,0.83
CCCOC(=O)Nc1sc2c(c1C(=O)OCC)CCC2,-8,/,/,-1.7,99,i,1.2
CC(OC(=O)CCc1nc(=O)c2ccccc2n1C)C(=O)NCc1ccc2c(c1)OCO2 (stereo unspecified),-5,/,/,/,101,i,1.1
CCOC(=O)C1=C(C)NC(=S)NC1c1ccsc1 (stereo unspecified),-2,0,108,/,99,i,1
CC(C)(C)c1cc(C(c2cccnc2)N2CCN(CCO)CC2)cc(C(C)(C)C)c1O (stereo unspecified),2,48,112,0.7,97,i,0.45
O=C(CSc1nc(Cc2ccccc2)nc2ccccc12)c1ccc2c(c1)OCCO2,10,/,/,0.0,96,i,0.91
Clc1ccc(CSc2ncnc3nc[nH]c23)cc1,0,-52,97,0.2,102,i,0.98
Cc1ccc(S(=O)(=O)N2CCCCC2)cc1NC(=O)COC(=O)CNC(=O)c1cc(Cl)cc([N+](=O)[O-])c1,16,-23,111,-0.4,114,i,0.91
O=S(=O)(NC1CC1)c1ccc(S(=O)(=O)N2CCc3ccccc32)cc1,-12,/,/,0.3,102,i,0.95
COc1ccc(NC(=O)CN(C)S(=O)(=O)c2ccccc2)cc1OC,-7,-95,43,0.0,76,i,0.89
Cc1ccccc1Cn1cnc2c(nnn2Cc2ccc(F)cc2)c1=O,0,/,/,-0.7,102,i,0.86
CCOn1c(=O)c(-c2cccc([N+](=O)[O-])c2)[n+]([O-])c2ccccc21,2,/,/,0.1,103,i,0.94
CC(C)(C)C(=O)C[n+]1cccc(C(N)=O)c1,-1,33,88,/,101,i,1.2
OCn1c2ccccc2c2ccccc21,/,/,/,/,103,i,0.81
O=C(CSc1ccc(-c2ccccc2)nn1)Nc1ccc2c(c1)OCCO2,-11,13,127,-1.8,101,i,0.85
CCCNc1nc(C)c(C(C)=O)cc1C#N,8,/,/,-0.3,101,i,1
CC1(C)CC(=O)C2=C(C1)N=C1SCCC(=O)N1C2c1cccc([N+](=O)[O-])c1 (stereo unspecified),-6,/,/,/,89,i,0.93
N#Cc1cc2c(nc1Cl)CCC2,/,/,/,/,119,i,0.94
Cc1ccc(OC(=O)CCc2c(C)nc3ncnn3c2C)cc1,-9,-27,67,-0.8,100,i,0.78
Cc1ccc(NS(=O)(=O)c2ccc(CCC(=O)NCc3cccnc3)cc2)cc1,-1,-137,128,/,101,i,1
Cc1ccc(-c2onc3ccc(C4OCCO4)cc23)cc1,-8,41,128,/,98,i,1.1
O=C(CCCSc1nc2ccccc2[nH]1)NC(c1ccccc1)c1ccccc1,14,-19,122,-1.5,101,i,0.94
c1ccc2c(c1)nc1n2CCS1,2,/,/,-0.8,100,i,0.79
O=C(O)C1=C(C(=O)Nc2ccc(F)c(Cl)c2)CCCC1,-1,/,/,-1.4,107,i,0.79
CC1CC(N(C(=O)c2ccccc2Cl)c2ccccc2)c2ccccc2N1 (stereo unspecified),-8,26,118,-2.9,98,/,/
c1csc(-c2cnc3n2CCCC3)c1,11,-92,43,-1.2,/,i,1
CC(C)C1(C(C)C)OC(=O)c2ccccc21,0,-38,107,-2.0,79,i,1.1
COCCNC(=O)CC(NS(=O)(=O)c1ccc(C)cc1)c1ccco1 (stereo unspecified),-11,/,/,-3.0,132,i,0.93
CCC(C)(C)NC(=O)C(c1cccnc1)N(CCOC)C(=O)Cn1nnc2ccccc21 (stereo unspecified),-20,20,87,0.1,99,i,1
O=C1c2c(O)cc(O)cc2O[C@H](c2ccc(O)c(O)c2)[C@@H]1O,/,/,/,/,92,i,0.72
COc1ccc(C2=CC(c3ccc(Cl)cc3)n3cnnc3N2)cc1OC (stereo unspecified),-5,-43,132,-1.9,120,?,/
O=S(=O)(c1ccc2c(c1)OCCO2)N1CCC(n2cnc3cc(F)ccc32)CC1,10,/,/,1.1,128,i,0.91
O=C(CNC(=O)Cc1ccccc1)N=Nc1c(O)n(Cc2ccc3c(c2)OCO3)c2ccccc12,1,/,/,-0.4,107,i,1.1
O=C1CCN(Cc2ccccc2)S(=O)(=O)c2ccccc21,/,/,/,/,103,i,0.78
O=S(=O)(NC1CCCc2ccccc21)c1cnc[nH]1 (stereo unspecified),-8,/,/,-0.5,98,i,1.1
Cc1cc(=O)oc2ccc(OC(=O)c3cccc(S(=O)(=O)N4CCOCC4)c3)cc12,-2,-318,54,-0.9,106,i,0.97
CC(=O)Nc1ccc(NC(=O)CSc2nnc(C)c(=O)[nH]2)cc1,-2,/,/,/,103,i,0.8
COc1ccc(OC)c(NS(=O)(=O)c2ccc(NC(=O)C3COc4ccccc4O3)cc2)c1 (stereo unspecified),4,-21,99,-1.2,99,i,1
C=CCn1c2ccccc2c2nnc(SCc3ccc4nonc4c3)nc21,-1,/,/,-2.9,96,i,0.84
Cc1cc(C)cc(NS(=O)(=O)c2ccc(NC(=S)Nc3ccccc3)cc2)c1,-4,0,82,-1.8,110,i,0.91
CCOC(=O)Nc1ccc2ncn(C)c(=O)c2c1,-3,/,/,-1.9,104,i,0.89
CC12CCC(C(=O)N(CSC(=S)N/N=C\c3ccccc3Cl)C1=O)C2(C)C (stereo unspecified),1,-10,138,-1.7,108,i,0.82
CC1CCN(C2CC(=O)N(c3ccccc3)C2=O)CC1 (stereo unspecified),10,/,/,/,110,i,0.92
O=[N+]([O-])c1cc(Cl)cc(/C=N/n2cnnc2)c1O,-3,/,/,/,101,i,1
COc1ccc(/C=C2\SC(=NCc3ccccc3)N(Cc3ccccc3)C2=O)cc1OC,-13,-9,110,-0.7,122,i,0.95
CN(C)C(=N)c1n[nH]nc1SCc1ccccc1,-8,/,/,/,103,i,0.95
O=C(c1ccc2c(c1)OCO2)C1CCCN(C2CCN(CCc3ccccc3)CC2)C1 (stereo unspecified),-2,-33,116,/,103,i,1.1
C=C(C)CN=C1SC(C(=O)Nc2sc3c(c2C(=O)OC)CCC3)C(N)=C1C(N)=O (stereo unspecified),-11,16,109,-0.8,105,i,1.2
C=CCNC(=O)C1CC(=O)N(c2ccc(OCC(=O)Nc3ccc(OC)cc3)cc2)C1 (stereo unspecified),0,7,128,-2.9,101,i,0.88

# The order is random, and some 1.1% of all compounds hit somewhere here.
